Compound activity as filed in PubChem.
AF4-AF9 inh = MLL-AF4/AF9 protein interaction inhibition; AlphaScreen, biotin-AF4 peptide binding to FLAG-AF9; inhibition, % at 10 µM; 350,000 tested, 0.47% active;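 active = every replicate reaching a set inhibition limit, whatever the replicate mean, cut at about 25% in these data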;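 note: 0% = plate neutral control median and 100% = total signal loss; the record names both 10 and 1 µM as test concentration; the first replicate is given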
Target sequence (P42568 whole entry, looked up): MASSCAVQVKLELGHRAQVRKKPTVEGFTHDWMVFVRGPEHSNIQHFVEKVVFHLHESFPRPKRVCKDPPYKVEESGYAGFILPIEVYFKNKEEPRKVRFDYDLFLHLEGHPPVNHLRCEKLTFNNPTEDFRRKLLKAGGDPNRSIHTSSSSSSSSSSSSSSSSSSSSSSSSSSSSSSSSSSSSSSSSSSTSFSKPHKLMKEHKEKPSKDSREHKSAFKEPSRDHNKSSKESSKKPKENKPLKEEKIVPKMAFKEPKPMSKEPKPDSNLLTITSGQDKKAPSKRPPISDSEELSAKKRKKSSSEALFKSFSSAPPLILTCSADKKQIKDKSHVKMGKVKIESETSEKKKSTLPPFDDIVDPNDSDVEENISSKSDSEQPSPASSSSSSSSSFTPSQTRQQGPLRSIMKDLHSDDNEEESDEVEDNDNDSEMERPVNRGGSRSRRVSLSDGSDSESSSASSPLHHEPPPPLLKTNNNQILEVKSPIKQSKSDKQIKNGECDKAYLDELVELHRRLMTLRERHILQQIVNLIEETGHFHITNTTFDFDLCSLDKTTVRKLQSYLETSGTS
FGF22 binding = shifts melting point of recombinant human FGF22. recombinant FGF22 thermal shift, SYPRO orange fluorescence; percent of sucrose octasulfate shift, DMSO zero. calls only at 9.99 µM. AID 651658. Q9HCT0. 340,000 tested, 1.5% active;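 active = melting point raised past a set limit in the mean and every replicate; three in four hits are not shown here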
Target sequence (Q9HCT0 whole entry, looked up): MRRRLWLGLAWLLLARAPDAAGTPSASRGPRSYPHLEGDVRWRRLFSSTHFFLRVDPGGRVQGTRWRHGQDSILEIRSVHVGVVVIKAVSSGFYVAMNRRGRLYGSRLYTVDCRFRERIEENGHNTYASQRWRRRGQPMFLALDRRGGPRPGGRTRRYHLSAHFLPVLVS
* marks the source's active call; other numbers are inactive results; i = inactive; + = active, no number; & = joins results of further samples.

SMILES	AF4-AF9 inh	FGF22 binding
COc1ccc(NC(=O)N(C)C[C@H]2Oc3c(NS(C)(=O)=O)cccc3C(=O)N([C@H](C)CO)C[C@H]2C)cc1	-2.0	i
COc1ccc2c3c([nH]c2c1)[C@H](CO)N(Cc1nccs1)CC31CCN(Cc2ccncc2)CC1	2.7	i
COc1ccc(CN(C)C[C@H]2Oc3ccc(NS(=O)(=O)c4ccc(Cl)cc4)cc3CC(=O)N([C@H](C)CO)C[C@H]2C)cc1	-0.7	i
C[C@H](O)C#Cc1ccc2c(c1)O[C@@H](CN(C)C(=O)CC1CC1)[C@H](C)CN([C@H](C)CO)S2(=O)=O	2.8	i
COCC(=O)N1[C@@H](C#N)[C@@H](c2ccccc2C2=CCCC2)[C@@H]1CO	-5.5	i
C[C@H]1CN([C@@H](C)CO)C(=O)Cc2cc(NC(=O)Cc3cn(C)c4ccccc34)ccc2O[C@@H]1CN(C)Cc1ccc2c(c1)OCO2	5.4	i
C[C@H]1CN([C@@H](C)CO)S(=O)(=O)c2ccc(Br)cc2O[C@H]1CN(C)S(C)(=O)=O	-1.1	i
C[C@H]1CCCCO[C@@H](CN(C)Cc2ccc(C(F)(F)F)cc2)[C@@H](C)CN([C@@H](C)CO)C(=O)c2cc(NS(=O)(=O)c3cn(C)cn3)ccc2O1	3.1	i
COc1ccc(S(=O)(=O)N(C)C[C@H]2OCCCC[C@H](C)Oc3ccc(NC(=O)Nc4ccc(F)cc4)cc3C(=O)N([C@H](C)CO)C[C@@H]2C)cc1	-1.0	i
O=C(NCc1ccccc1)[C@@H]1CCCN1C(=O)[C@H]1CCCN1C(=O)c1ccc(F)cc1F	-12.9	i
CN(C)CC(=O)N[C@H]1CC[C@@H](CCn2cc(C3CCCCC3)nn2)O[C@@H]1CO	-2.8	i
COc1ccc2c3c([nH]c2c1)[C@@H](CO)N(C(=O)c1ccncc1)CC31CCN(C(=O)Nc2cccc(F)c2)CC1	-1.4	i
C[C@@H]1CN([C@H](C)CO)C(=O)Cc2cc(NC(=O)C3CCCCC3)ccc2O[C@H]1CN(C)Cc1ccc(C(=O)Nc2ccccc2N)cc1	-3.4	i
CO[C@@H]1CN(C)C(=O)c2cc(NC(=O)c3cnccn3)ccc2OC[C@@H](C)N(C)C[C@@H]1C	-1.4	i
COCC(=O)Nc1ccc2c(c1)OC[C@@H](C)N(C(=O)CC1CC1)C[C@H](C)[C@H](OC)CN(C)C2=O	1.9	i
Cc1noc(C)c1NC(=O)Nc1ccc2c(c1)C(=O)N([C@H](C)CO)C[C@H](C)[C@H](CN(C)C(=O)C1CCCCC1)OCCCC[C@@H](C)O2	-2.1	i
O=C(c1cccnc1)N1C[C@@H]2[C@H](c3ccccc31)[C@H](CO)N2CC1CCCC1	-2.6	i
Cc1ccccc1-c1ccc([C@H]2[C@H]3CN(S(=O)(=O)c4cn(C)cn4)CCCCN3[C@H]2CO)cc1	0.1	i
COc1ccc2c3c(n(C)c2c1)[C@H](CO)N(C(=O)Nc1ccc(F)cc1)CC31CN(C(=O)c2ccccc2F)C1	-3.9	i
CN1C(=O)c2cc(NC(=O)c3cccc(F)c3)ccc2OC[C@H]2O[C@@H](CC(=O)NCC3CCCCC3)CC[C@@H]21	-1.2&-2.0	i
C[C@H](CO)N1C[C@H](C)[C@@H](CN(C)C(=O)Cc2cccnc2)Oc2ncc(-c3cncnc3)cc2C1=O	-7.3	i
C[C@@H]1CN([C@H](C)CO)C(=O)c2cc(NC(=O)CCN3CCOCC3)ccc2O[C@H]1CN(C)S(=O)(=O)c1cccs1	-11.3	i
C[C@@H]1CCCCO[C@@H](CN(C)C(=O)Nc2ccc(F)cc2)[C@H](C)CN([C@@H](C)CO)C(=O)c2cc(NC(=O)Nc3ccc4c(c3)OCO4)ccc2O1	1.0	i
C[C@@H]1CCCCO[C@@H](CN(C)C(=O)Nc2ccc(C(F)(F)F)cc2)[C@@H](C)CN([C@H](C)CO)C(=O)c2cc(NS(=O)(=O)c3cccs3)ccc2O1	-2.0	i
COc1ccc(NC(=O)Nc2ccc3c(c2)C(=O)N([C@@H](C)CO)C[C@H](C)[C@H](CN(C)Cc2ccccc2)O3)cc1	1.7	i

Next section (2 carried over from the part before).
SMILES	AF4-AF9 inh	FGF22 binding
C[C@@H]1CCCCO[C@@H](CN(C)C(=O)Nc2ccc(C(F)(F)F)cc2)[C@@H](C)CN([C@H](C)CO)C(=O)c2cc(NS(=O)(=O)c3cccs3)ccc2O1	-2.0	i
COc1ccc(NC(=O)Nc2ccc3c(c2)C(=O)N([C@@H](C)CO)C[C@H](C)[C@H](CN(C)Cc2ccccc2)O3)cc1	1.7	i
CO[C@@H]1CN(C)C(=O)c2ccc(NC(C)=O)cc2OC[C@@H](C)N(Cc2ccccc2C(=O)O)C[C@H]1C	-2.0	i
C[C@H](CO)N1C[C@H](C)[C@@H](CN(C)Cc2ccc3c(c2)OCO3)Oc2ccc(NC(=O)Cc3ccccc3)cc2C1=O	2.1	i
N#C[C@@H]1[C@H](c2ccccc2)[C@@H](CO)N1S(=O)(=O)c1ccc(F)cc1	-0.2	i
Cc1noc(C)c1S(=O)(=O)Nc1ccc2c(c1)C(=O)N([C@@H](C)CO)C[C@@H](C)[C@H](CN(C)S(=O)(=O)c1ccccc1)OCCCC[C@@H](C)O2	-0.3	i
Cc1noc(C)c1NC(=O)N(C)C[C@@H]1Oc2c(NS(=O)(=O)c3cn(C)cn3)cccc2C(=O)N([C@H](C)CO)C[C@H]1C	-6.2	i
C[C@@H]1CCCCO[C@H](CN(C)C(=O)CCC(F)(F)F)[C@H](C)CN([C@@H](C)CO)C(=O)c2cc(NS(=O)(=O)c3ccccc3)ccc2O1	-1.9	i
CN1[C@@H]2c3ccc(-c4ccc(F)cc4)c(=O)n3C[C@H]1[C@H](CO)[C@H]2C(=O)NC1CCCCC1	-0.1	i
COc1ccc2c3c(n(C)c2c1)[C@@H](CO)N(C(=O)c1cccc(F)c1)CC31CN(CC2CC2)C1	5.7	i
C[C@@H]1CCCCO[C@@H](CN(C)C(=O)Nc2cccc3ccccc23)[C@@H](C)CN([C@H](C)CO)C(=O)c2cc(NC(=O)Cc3ccccc3)ccc2O1	-2.6	i
C[C@H](CO)N1C[C@H](C)[C@@H](CN(C)C(=O)Cc2ccncc2)Oc2ncc(C3=CCCCC3)cc2C1=O	2.8	i
N#C[C@@H]1[C@@H](c2ccc(-c3cncnc3)cc2)[C@H](CO)N1C(=O)C1CCC1	-0.5	i
Cc1ccc(S(=O)(=O)N[C@@H]2C=C[C@H](CC(=O)N3CCc4ccccc4C3)O[C@@H]2CO)cc1	-2.1	i
O=C(CC1CC1)Nc1ccc2c(c1)[C@H]1C[C@H](CC(=O)N3CCc4ccccc4C3)O[C@H](CO)[C@H]1O2	-0.7	i
CC(C)NC(=O)N(C)C[C@H]1Oc2ccc(NC(=O)C3CCCCC3)cc2C(=O)N([C@@H](C)CO)C[C@@H]1C	-3.2	i
C[C@H](C(=O)N(C)C[C@H]1OCc2ccccc2-c2ccccc2C(=O)N([C@@H](C)CO)C[C@H]1C)c1ccccc1	-0.8	i
C[C@H](CO)N1C[C@H](C)[C@@H](CN(C)Cc2ccc3c(c2)OCO3)Oc2ccc(NS(=O)(=O)c3ccc(F)cc3)cc2CC1=O	9.2	i
CCCC(=O)Nc1ccc2c(c1)OC[C@@H](C)N(C)C[C@H](C)[C@@H](OC)CN(C)C2=O	-0.9	i
C[C@@H]1CCCCO[C@@H](CN(C)C(=O)Nc2ccc(F)cc2)[C@H](C)CN([C@@H](C)CO)C(=O)c2cc(NC(=O)C3CCCCC3)ccc2O1	-0.6	i
C[C@@H]1CN([C@H](C)CO)C(=O)c2cc(NC(=O)Nc3cccc4ccccc34)ccc2O[C@@H](C)CCCCO[C@@H]1CN(C)Cc1ccc(C(=O)O)cc1	2.8	i
C[C@@H]1CCCCO[C@H](CN(C)C(=O)Nc2cccc3ccccc23)[C@@H](C)CN([C@H](C)CO)C(=O)c2cc(NC(=O)Nc3cccc4ccccc34)ccc2O1	-2.2	+
C/C=C/c1ccc([C@@H]2[C@H]3CN(S(=O)(=O)c4ccc(F)cc4)CCCCN3[C@H]2CO)cc1	-0.4	i
C[C@@H]1CN([C@H](C)CO)C(=O)c2c(c3ccccc3n2C)-c2ccccc2CO[C@@H]1CN(C)C(=O)Cc1ccccc1	1.4	i
C[C@H]1CN([C@@H](C)CO)C(=O)c2cc(NC(=O)Cc3ccccc3)ccc2O[C@H]1CN(C)S(=O)(=O)c1cccs1	0.2	i
Cn1cnc(S(=O)(=O)N[C@H]2CC[C@H](CC(=O)N3CCN(c4ccccc4)CC3)O[C@@H]2CO)c1	-0.6	i
C[C@@H]1CN([C@@H](C)CO)C(=O)c2cc(NC(=O)Nc3ccccc3)ccc2O[C@H]1CN(C)Cc1ccncc1	2.4	i

Six entries from above in a different format.
Molecule | AF4-AF9 inh | FGF22 binding
C[C@@H]1CCCCO[C@H](CN(C)C(=O)Nc2cccc3ccccc23)[C@@H](C)CN([C@H](C)CO)C(=O)c2cc(NC(=O)Nc3cccc4ccccc34)ccc2O1 | -2.2 | +
C[C@H](CO)N1C[C@H](C)[C@@H](CN(C)Cc2ccc3c(c2)OCO3)Oc2ccc(NS(=O)(=O)c3ccc(F)cc3)cc2CC1=O | 9.2 | i
CC(C)NC(=O)N(C)C[C@H]1Oc2ccc(NC(=O)C3CCCCC3)cc2C(=O)N([C@@H](C)CO)C[C@@H]1C | -3.2 | i
N#C[C@@H]1[C@@H](c2ccc(-c3cncnc3)cc2)[C@H](CO)N1C(=O)C1CCC1 | -0.5 | i
C[C@@H]1CN([C@@H](C)CO)C(=O)c2cc(NC(=O)Nc3ccccc3)ccc2O[C@H]1CN(C)Cc1ccncc1 | 2.4 | i
Cc1noc(C)c1NC(=O)N(C)C[C@@H]1Oc2c(NS(=O)(=O)c3cn(C)cn3)cccc2C(=O)N([C@H](C)CO)C[C@H]1C | -6.2 | i

The list continues:
SMILES	AF4-AF9 inh	FGF22 binding
CCCNC(=O)N1[C@@H](C#N)[C@@H](c2ccc(-c3ccc(C(=O)N(C)C)cc3)cc2)[C@@H]1CO	-1.8	i
COCC(=O)N(C)C[C@@H]1Oc2cc(C3=CCCCC3)ccc2S(=O)(=O)N([C@H](C)CO)C[C@@H]1C	2.5	i
C[C@@H]1CCCCO[C@@H](CN(C)C(=O)C2CCCCC2)[C@H](C)CN([C@H](C)CO)C(=O)c2cc(NC(=O)Nc3ccc(C(F)(F)F)cc3)ccc2O1	-0.1	i
CN1C(=O)c2cc(NC(=O)Nc3ccccc3F)ccc2OC[C@H]2O[C@H](CC(=O)NCc3ccc(-c4ccccc4)cc3)CC[C@@H]21	-2.1	i
C[C@@H]1CN([C@H](C)CO)C(=O)c2cc(NC(=O)NC3CCCCC3)ccc2O[C@@H]1CN(C)S(=O)(=O)c1cccs1	-0.6	i
C[C@@H]1CN([C@@H](C)CO)C(=O)c2ccccc2-c2ccccc2CO[C@H]1CN(C)C(=O)CCN(C)C	-4.5	i
C[C@H](CO)N1C[C@H](C)[C@H](CN(C)S(=O)(=O)c2ccc(Cl)cc2)OCCCC[C@H](C)Oc2ccc(NS(=O)(=O)c3ccc(F)cc3)cc2C1=O	-2.7	i
CNC[C@@H]1Oc2cc(C#Cc3ccccn3)ccc2S(=O)(=O)N([C@@H](C)CO)C[C@H]1C	-1.2	i
Cc1ccc(S(=O)(=O)N(C)C[C@H]2Oc3c(NC(=O)CCCCCC(=O)Nc4ccccc4N)cccc3C(=O)N([C@H](C)CO)C[C@@H]2C)cc1	-1.2	i
O=C(C[C@H]1C=C[C@H](NC(=O)C2CCC2)[C@H](CO)O1)NC1CCCCC1	-7.7	i
O=C(C[C@@H]1CC[C@H]2[C@@H](COC[C@H](O)CN2Cc2ccncc2)O1)NCc1ccccc1Cl	-3.3	i
COCC(=O)N1[C@@H](CO)[C@@H](c2ccccc2)C12CN(C(=O)c1cccc(F)c1)C2	-5.9	i
C[C@@H]1CN([C@@H](C)CO)C(=O)CCCn2nncc2CO[C@H]1CN(C)Cc1ccc(C(=O)Nc2ccccc2N)cc1	4.7	i
CO[C@@H](CN(C)C(=O)c1cnccn1)[C@@H](C)CN([C@@H](C)CO)S(=O)(=O)c1ccc(Cl)cc1	0.9	i
CO[C@@H]1CC[C@@H]2CCOc3c(C#N)cccc3C(=O)N(C)C[C@H](C)C(=O)N(C)C[C@H]1O2	-8.4	i
O=C(C[C@H]1CC[C@@H]2[C@H](COC[C@@H](O)CN2C(=O)c2cnccn2)O1)NCc1ccccc1	-0.8	i
C[C@@H]1CN([C@@H](C)CO)C(=O)c2cccc(NC(=O)CCCCCC(=O)Nc3ccccc3N)c2O[C@H]1CN(C)Cc1ccc(-c2ccccc2)cc1	-0.6	i
COCCNC(=O)C[C@@H]1C[C@H]2c3cc(NC(=O)C4CCOCC4)ccc3O[C@H]2[C@H](CO)O1	-0.3	i
C[C@@H]1CN([C@H](C)CO)C(=O)c2cc(-c3cccc(F)c3)cnc2O[C@@H]1CN(C)Cc1ccccc1	-6.1	i
C[C@@H]1CN([C@H](C)CO)S(=O)(=O)c2ccc(C#Cc3ccccn3)cc2O[C@H]1CN(C)Cc1ccccc1	0.4	i
CCCc1cn(CC[C@H]2CC[C@H](NC(=O)Nc3ccc4c(c3)OCO4)[C@@H](CO)O2)nn1	1.4	i
C[C@H](CO)N1C[C@H](C)[C@H](CN(C)CC2CCCCC2)OCCCC[C@H](C)Oc2ccc(NS(C)(=O)=O)cc2C1=O	0.9	i
O=C([C@H]1[C@H](CO)[C@H]2Cn3c(ccc(-c4ccncc4)c3=O)[C@@H]1N2Cc1ccccc1)N1CCOCC1	-1.5	i
O=C(c1ccccc1F)N1C[C@H]2[C@@H](c3ccccc31)[C@@H](CO)N2C(=O)c1ccc(F)cc1	-1.3	i
O=C(Cc1ccccn1)N1[C@@H]2CNc3ccccc3[C@@H]2[C@@H]1CO	2.0	i
C[C@H](CO)N1C[C@H](C)[C@@H](CN(C)C(=O)CN2CCOCC2)Oc2ncc(/C=C/c3ccccc3)cc2C1=O	-1.4	i

Only part of the results is shown; the hit share may differ from the screen's.
